Assay outcomes deposited in PubChem by National Center for Advancing Translational Sciences (NCATS).
CtBP-E1A blk: inhibitors of CtBP/E1A interaction. hit rate 0.49% among 340,000. AID 651724. AlphaScreen GST-E1A/His-CtBP binding, 1536-well; active compounds read low; control for the full effect not named in the record. activity change, % (concentration not given with the values); in the data active means activity change below about -65%; inconclusive means about -30% to -65%; inactive means above about -30%; note: % is set by controls: 0 for no effect and ±100 for the full control effect
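Steps: dispense buffer (Tris pH 8.0, NaCl 300 mM, TCEP 1 mM, BSA, Tween 20); add 5X protein mix (GST-E1A, His-CtBP, 125 nM each); pin 23 nL compound; 2 h at 37 °C, dark; add 5X beads (50 ug/mL); 1 h; read.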
TRPML1 inh: inhibitors of human TRPML1 channel. Q9GZU1. TRPML1-inducible cells, Ca2+ dye fluorescence, FDSS; active compounds read low; inhibition of EC80 agonist-evoked calcium signal. activity change, negative = inhibition, % (no concentration beside the values). hit rate 0.02% among 390,000; in the data active means activity change below about -50%; inconclusive means about -30% to -50%; inactive means above about -30%;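 note: stimulus is agonist 54-4 at its EC80 concentration; % is set by controls: 0 for no effect and ±100 for the full control effect; compound concentration not given in the record; the text of the record puts the active cut at -80%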
Target sequence (Q9GZU1 whole entry, looked up): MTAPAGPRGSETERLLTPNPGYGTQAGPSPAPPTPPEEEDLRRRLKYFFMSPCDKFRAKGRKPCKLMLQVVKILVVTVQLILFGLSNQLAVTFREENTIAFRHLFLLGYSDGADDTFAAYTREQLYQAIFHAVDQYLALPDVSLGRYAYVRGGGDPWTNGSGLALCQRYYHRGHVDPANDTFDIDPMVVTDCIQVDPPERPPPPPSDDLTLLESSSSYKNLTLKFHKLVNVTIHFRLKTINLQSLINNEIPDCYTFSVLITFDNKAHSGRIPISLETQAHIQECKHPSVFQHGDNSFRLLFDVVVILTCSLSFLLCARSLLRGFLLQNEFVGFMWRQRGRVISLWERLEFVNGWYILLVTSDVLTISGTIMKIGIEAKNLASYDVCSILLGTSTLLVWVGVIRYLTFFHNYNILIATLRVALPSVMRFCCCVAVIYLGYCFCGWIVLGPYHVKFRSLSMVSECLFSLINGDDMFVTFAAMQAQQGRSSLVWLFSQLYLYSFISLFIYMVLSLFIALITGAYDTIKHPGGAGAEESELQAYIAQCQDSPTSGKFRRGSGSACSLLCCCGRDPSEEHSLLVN
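Tet-induced TRPML1-DL cells loaded with Ca8 no-wash calcium dye were read kinetically on FDSS. Compound addition was followed by EC80 agonist 54-4 (4 uM final); inhibition was read over 110 s.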
Six1-Eya2 inh: blocks human Six1 binding to Eya2 | hit rate 0.56% among 360,000 | AlphaScreen GST-Six1/His-Eya2 binding, biochemical; active compounds read low; control for the full effect not named in the record | activity change, % (test concentration not listed) | AID 651725 | Q15475+O00167; in the data active = activity change below about -65%; inconclusive = about -30% to -65%; inactive = above about -30%; note: % is set by controls: 0 for no effect and ±100 for the full control effect
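Homogeneous AlphaScreen proximity assay pairing GST-Six1 with His-tagged Eya2 (added as 5X mix: 250 nM and 500 nM) in 50 mM Tris pH 8.0, 300 mM NaCl, 1 mM TCEP. Glutathione donor and nickel acceptor beads; 1 h, 37 °C, dark.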
PINK1 modulator: PINK1 expression modulation; PINK1 immunofluorescence, high-content cytometry, 24 h; Potency, µM (series often up to 76.6 µM), for the others: top-dose activation (PINK1 increase), usual class: activators; hit rate 0.2% among 410,000; AID 624263; active = well fitted activation curve with a large enough effect; inconclusive = small, poorly fitted or top-dose-only effect; inactive = flat fitted curve, though single readings scatter; cell line not stated here;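 note: potency is the fitted concentration of half-maximal effect; % of control where 0% means no effect; nearly all actives have a fitted effect of over 65% in size; a mitochondrial uncoupler was the plate control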
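Decision-based qHTS: stable cells, 24 h exposure to five compound concentrations, CCCP as control. Fixed cells stained for PINK1 plus nuclear, mitochondrial and cell markers, cytometer read.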
D2 ag: activates the human D2 dopamine receptor; P14416; DiscoveRx PathHunter D2 beta-arrestin, luminescence, 90 min; 100% = 57 uM dopamine signal; activation, % (no concentration beside the values); hit rate 0.084% among 360,000; AID 624465; in the data active = activation above about 40%; inconclusive = about 15% to 40%; inactive = below about 15%; note: compound concentration not given in the record; the text of the record calls up to 30% inactive
Target sequence (P14416 whole entry, looked up): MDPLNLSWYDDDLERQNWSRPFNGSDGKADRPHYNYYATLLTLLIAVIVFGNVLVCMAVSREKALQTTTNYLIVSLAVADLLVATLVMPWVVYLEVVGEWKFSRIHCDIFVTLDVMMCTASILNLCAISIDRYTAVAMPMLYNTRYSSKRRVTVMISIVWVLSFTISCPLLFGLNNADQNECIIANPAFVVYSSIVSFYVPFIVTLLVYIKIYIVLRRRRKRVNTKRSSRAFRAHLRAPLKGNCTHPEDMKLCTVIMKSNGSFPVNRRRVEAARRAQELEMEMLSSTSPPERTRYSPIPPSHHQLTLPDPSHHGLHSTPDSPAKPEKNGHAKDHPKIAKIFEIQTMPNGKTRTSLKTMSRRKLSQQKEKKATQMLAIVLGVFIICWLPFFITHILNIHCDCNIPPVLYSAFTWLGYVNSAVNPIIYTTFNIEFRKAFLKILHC
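DiscoveRx PathHunter D2 beta-arrestin cells (2,100/well) attached overnight, then compound-stimulated 90 min at 37 C in HBSS/10 mM HEPES/0.1% Tween-20 buffer; beta-galactosidase complementation read by luminescence after 1 h at ambient temperature. Dopamine 57 uM final (EC100) as control.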
TRPML1 ag: human mucolipin-1 channel agonism; TRPML1-expressing cells, Ca2+ dye fluorescence, FDSS; host cell line not named in the record; reference of the full effect not given here; hit rate 0.12% among 410,000; Q9GZU1; activation, % (test concentration not listed); in the data active = activation above about 50%; inconclusive = about 30% to 50%; inactive = below about 30%; note: 0% is about no effect; the text of the record puts the active cut at 80%
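Kinetic FDSS Ca2+ read in Tet-induced TRPML1-DL cells (ABD Ca8 dye plus quencher, 45-90 min RT loading): baseline, then compound, then 110 s agonist window; EC80 agonist 54-4 at 4uM final added afterwards for a 110 s antagonist window.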
An asterisk follows results filed as active; ? = inconclusive; . = not tested or not shown; & = joins results of further samples; [ ] = another dose, or the depositor's remark.

SMILES	CtBP-E1A blk	TRPML1 inh	Six1-Eya2 inh	PINK1 modulator	D2 ag	TRPML1 ag
CCCCn1c(N)c(N(CC(C)C)C(=O)C2CCN(S(=O)(=O)c3ccc(OCC)cc3)CC2)c(=O)[nH]c1=O	-1	-1	2	2.3%	-1.6	0.5
COc1ccc(C/C(N)=N/n2cnnc2)cc1Cl	-3	6	10	5.8%	0.1	-0.5
O=C(NC1(C(F)(F)F)C(=O)Nc2c1c(=O)[nH]c(=O)n2-c1ccccc1)c1ccncc1 (stereo unspecified)	9	12	1	-0.1%	-4.8	-0.2
CCN(CC)C(=O)Cn1cc(S(=O)(=O)CC(=O)N2CCCCCC2)c2ccccc21	4	11	3	0.3%	-3.4	-0.5
O=C(Cc1c(F)cccc1Cl)Nc1ccc(S(=O)(=O)Nc2nccs2)cc1	0	-2	-17	0.7%	-2.7	0.5
O=C(NCCS(=O)(=O)N1CCN(c2ccc(F)cc2)CC1)c1ccccc1Br	.	-28	.	1.2%	.	1.1
COc1cc(S(=O)(=O)N2CCN(C(=O)c3ccccc3)CC2)c(OC)cc1Br	.	-5	0	-0.9%	3.3	0.2
CCOC(=O)c1nn(-c2ccc(Cl)cc2)c2nnc(Cc3ccccc3)c(=O)n12	-3	-5	-4	-1.9%	2.8	0.2
O=S(=O)(Nc1cccnc1Cl)c1ccc(F)cc1	1	41	0	-0.1%	-1.9	0.0
CCC(=O)N1CCCC1(C)C(=O)Nc1ccc(OC(F)F)cc1 (stereo unspecified)	4	.	5	-0.6%	-4.8	0.3
Cc1oc2ncn(C)c(=O)c2c1C(=O)N1CCN(c2ccc(Cl)cc2)CC1	.	4	.	-1.1%	.	0.4
O=C1CC(NS(=O)(=O)c2ccc3ccccc3c2)CN1c1ccccc1 (stereo unspecified)	-17	-4	2	-1.2%	3.6	-0.7
COc1ccc(NC(=O)C(F)(F)F)cc1OC	7	-17	-1	1.4%	0.0	0.0
CCCCC(CC)CNC(=O)c1cc2ccccc2c(=O)o1 (stereo unspecified)	3	-20	3	11%	-1.9	3.0
COc1ccc(OC)c(S(=O)(=O)N2CCCC(C(=O)NC3CC3)C2)c1 (stereo unspecified)	-1	23	-7	-0.4%	-4.1	0.1
Cc1cccc(NC(=O)c2nc[nH]c2C(=O)NCCCCCNC(=O)OC(C)(C)C)c1	-20	39	-12	8.0%	6.0	0.8
COCCNC(=O)/C(C#N)=C/c1c(N2CCN(c3ccccc3)CC2)nc2c(C)cccn2c1=O	-24	11	-29	2.9%	-4.1	1.4
COc1ccc(NC(=O)COC(=O)C(CC(C)C)N2C(=O)C3CC=CCC3C2=O)cc1Cl (stereo unspecified)	1	18	9	4.0%	-4.0	-0.4
CC1Cc2cc(S(=O)(=O)NCCc3ccc(Cl)cc3)ccc2N1C(=O)C1CCC1 (stereo unspecified)	.	31	.	-0.3%	.	2.5
O=C1CC(C(=O)Nc2ccc(C(=O)O)cc2)C(c2ccccc2)O1 (stereo unspecified)	-9	45	10	-0.9%	0.5	-0.2
CCCS(=O)(=O)c1csc(C(=O)OC)c1N	9	7	-4	-0.9%	0.5	0.9
Cc1cc(NC(=O)COc2c(C)cccc2C)no1	4	-19	5	-0.2%	-4.7	-0.1
Nc1nnc(CC(=O)NCc2ccccc2)s1	0	10	11	1.0%	1.1	-0.1
Cc1oc2c(c1C(=O)NCCO)CCCC2	12	0	-2	-2.3%	-3.9	-0.3
COc1ccc(NC(=O)Nc2cc(C)ccc2F)cc1	9	0	2	.	-3.4	0.4
Cc1ccnc(NS(=O)(=O)c2ccc(NC(=O)c3cc(-c4ccc(Br)cc4)nc4ccccc34)cc2)n1	-1	12	-11	?	4.5	-0.2
CCOc1ccc(CNC(=O)c2cc3ccccn3n2)cc1	.	2	.	-1.4%	.	-0.9
CCOC(=O)c1c(C)nc2sc(C(=O)Nc3ccc(OC)cc3)c(N)c2c1-c1ccc(OC)cc1	10	-16	8	9.5%	-3.2	2.1
COC(=O)CN1C(=O)COc2ccc(S(=O)(=O)N3CCOCC3)cc21	6	-16	2	-0.7%	-1.1	1.6
COc1cccc2cc(/C(C)=N/NC(=O)c3ccco3)oc12	?	-18	-22	-2.0%	-1.3	0.4
CC(C)NC(=O)Nc1nnc([C@H]2C[C@H](O)[C@@H](CO)O2)s1	5	-9	4	0.4%	-2.8	0.1
CC1(C(=O)NCc2ccc(F)c(F)c2)Cc2c(-c3cccc(C(F)(F)F)c3)ccnc2O1 (stereo unspecified)	3	.	6	11%	3.8	-0.1
O=C(c1ccco1)N1CCC(c2nc3c(nnn3Cc3ccc(F)cc3)c(=O)[nH]2)CC1	-3	-5	-23	1.3%	6.5	1.0
C[C@@H]1CCCCO[C@H](CN(C)C(=O)Nc2ccc3c(c2)OCO3)[C@H](C)CN([C@@H](C)CO)C(=O)c2cc(NS(=O)(=O)c3ccc(Cl)cc3)ccc2O1	-13	4	-2	0.8%	-3.5	-0.3
O=C(c1cccc(Cl)c1)C1CCCN(C(=O)c2ccc3c(c2)OCO3)C1 (stereo unspecified)	1	-5	-3	-0.7%	-3.1	-1.5
O=C(COC(=O)COc1cc(Cl)c(Cl)cc1Cl)NC1CC1	-1	2	3	-1.5%	-2.2	-0.5
N#CC1(C#N)COC23CCCCC2C1(C#N)C(=N)O3 (stereo unspecified)	1	35	0	0.8%	-2.4	0.8
CCN(CC(=O)NCc1ccc(F)cc1)C(=O)c1ccc2c(c1)OCO2	-7	5	7	-1.7%	4.4	-0.1
COC(=O)c1cc(OCC(=O)Nc2ccc3c(c2)CCC3)cc(C(=O)OC)c1	8	10	3	6.0%	-4.2	2.4
Cc1ccc(S(=O)(=O)Nc2ccc(C(=O)NCCCN3CCOCC3)cc2)cc1[N+](=O)[O-]	3	-5	4	-1.9%	-3.4	0.7

Profiles from above.
Record of `CC(C)NC(=O)Nc1nnc([C@H]2C[C@H](O)[C@@H](CO)O2)s1` : CtBP-E1A blk = 5; TRPML1 inh = -9; Six1-Eya2 inh = 4; PINK1 modulator = 0.4%; D2 ag = -2.8; TRPML1 ag = 0.1
Record of `CCN(CC(=O)NCc1ccc(F)cc1)C(=O)c1ccc2c(c1)OCO2` : CtBP-E1A blk = -7; TRPML1 inh = 5; Six1-Eya2 inh = 7; PINK1 modulator = -1.7%; D2 ag = 4.4; TRPML1 ag = -0.1

More records
SMILES	CtBP-E1A blk	TRPML1 inh	Six1-Eya2 inh	PINK1 modulator	D2 ag	TRPML1 ag
CCOC1=NN(c2ncc(C(F)(F)F)cc2Cl)C(=O)C1	-3	6	4	-1.2%	5.0	-0.5
COC(=O)c1sc2cccc(F)c2c1S(=O)(=O)Nc1cc(OC)cc(OC)c1	.	-12	.	0.7%	.	2.5
Cc1ccccc1Nc1nc(N)nc(CSc2n[nH]c(N)n2)n1	-2	0	6	-0.1%	-2.2	-0.5
Cc1cc(C)c(C=NNc2nc3c([nH]2)c(=O)n(C)c(=O)n3C)c(C)c1	-12	-13	8	-1.5%	-2.0	0.5
Cc1ccc(C)c(/C(O)=C2\C(=O)C(=O)N(CCCN3CCOCC3)C2c2cccnc2)c1 (stereo unspecified)	15	44	5	3.8%	-0.1	-1.0
O=c1[nH]c2ccc(NS(=O)(=O)c3ccc(F)c(Cl)c3)cc2[nH]1	-10	9	-10	3.3%	-3.9	-1.4
O=C1c2oc3ccccc3c(=O)c2C(c2cccc(Br)c2)N1c1ccccn1 (stereo unspecified)	.	-13	.	0.7%	.	-0.5
CCCCn1c(N)c(NCc2ccccc2)c(=O)[nH]c1=O	1	16	3	0.2%	-3.6	-0.2
O=C(COC(=O)CCCN1C(=O)c2cccc3cccc(c23)C1=O)NC1CCS(=O)(=O)C1 (stereo unspecified)	-9	-4	1	-0.3%	-1.0	0.1
O=S(=O)(c1ccc2c(c1)nc(COc1ccc(Cl)cc1)n2CC1CCCO1)N1CCOCC1 (stereo unspecified)	-7	-5	0	-0.4%	1.8	3.5

Another view of part of the listing above.
The line under a structure holds: CtBP-E1A blk, TRPML1 inh, Six1-Eya2 inh, PINK1 modulator, D2 ag, TRPML1 ag
- O=C1c2oc3ccccc3c(=O)c2C(c2cccc(Br)c2)N1c1ccccn1 (stereo unspecified)
  ., -13, ., 0.7%, ., -0.5
- CCCCn1c(N)c(NCc2ccccc2)c(=O)[nH]c1=O
  1, 16, 3, 0.2%, -3.6, -0.2
- O=C(COC(=O)CCCN1C(=O)c2cccc3cccc(c23)C1=O)NC1CCS(=O)(=O)C1 (stereo unspecified)
  -9, -4, 1, -0.3%, -1.0, 0.1
- O=S(=O)(c1ccc2c(c1)nc(COc1ccc(Cl)cc1)n2CC1CCCO1)N1CCOCC1 (stereo unspecified)
  -7, -5, 0, -0.4%, 1.8, 3.5

New compounds follow:
SMILES	CtBP-E1A blk	TRPML1 inh	Six1-Eya2 inh	PINK1 modulator	D2 ag	TRPML1 ag
N#C/C(=C\c1ccc(OCC(N)=O)cc1)c1ccccc1	0	10	2	-0.3%	0.0	0.9
COc1ccc([C@H]2CC(=O)C[C@@H](CCn3cc(-c4ccccn4)nn3)O2)cc1	-11	.	-20	3.3%	.	-0.2
O=C(NC1CCCC1)C(c1ccncc1)N(Cc1ccccc1F)C(=O)c1csnn1 (stereo unspecified)	2	29	-6	1.9%	0.4	1.1
Cc1cc(N2CCCC2)c(F)cc1/C=C\[N+](=O)[O-]	6	-3	6	0.4%	-1.2	52*
CCCCCCn1c(CN2CCN(CCO)CC2)nc2c1c(=O)n(C)c(=O)n2C	-9	-5	-16	0.0%	-1.0	-0.6
CCOC(=O)N1CCN(C(=O)COC(=O)c2ccccc2NCCO)CC1	-8	-11	2	2.2%	1.3	-0.6
O=C(NCCc1nc2ccccc2n1Cc1ccccc1F)c1ccc(F)cc1	.	34	.	-0.3%	.	4.0
O=C(NC1CC1)C1C2C3C4CC5C3C5C4C12 (stereo unspecified)	14	-7	5	-4.0%[38.3 µM]	0.6	0.0
O=C(CCC(=O)Nc1ccc(Cl)cc1Cl)N/N=C/c1ccc([N+](=O)[O-])o1	-11	2	-12	?	2.9	1.8
Cc1cccc(C)c1NC(=O)CN1CCN(C(=O)CNC(=O)Cc2cccc3ccccc23)CC1	-2	-5	24	0.1%	-4.7	-0.5
O=C(COC(=O)c1ccccc1[N+](=O)[O-])NNC(=O)c1cccs1	9	8	2	0.5%	-4.4	1.0
CC(C)C(=O)Nc1nnc(S(=O)(=O)N2CCc3ccccc32)s1	0	10&0	4	12%&-0.1%	-2.6	13&14
O=C1NC(=O)c2cc(Br)cc3cccc1c23	.	-5	0	0.8%	1.3	0.7
CCOC(=O)c1c(C)[nH]c(C(=O)CN(C)CC(=O)Nc2ccccc2Cl)c1C	-9	24	2	2.7%	-5.9	1.0
O=C(O)c1cc(=O)[nH]c2ccccc12	2	.	2	0.0%	-1.3	.
Cc1cccc(C(CC(=O)O)NC(=O)C(F)(F)F)c1 (stereo unspecified)	20	2	6	1.1%	0.0	0.4
COC(=O)c1c(NC(=O)C2CC2)sc2c1CCN(C(C)=O)C2	0	-21	-7	0.4%	-0.8	-0.5
